NPYLR7 ag – agonists of mosquito NPYLR7 receptor, primary screen, cell-based, Aedes aegypti, calcium fluorescence, mosquito biting behavior. Aedes aegypti neuropeptide Y-like receptor 7 (NPYLR7). HEK293T NPYLR7/Galpha15, GCaMP6s calcium fluorescence. activation, % at 10 µM. 270,000 compounds, 0.15% hits. AID 1259423, 2018; in the data active means activation above about 40%;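 further: 0% = vehicle and 100% = reference agonist at the receptor; some compounds past the cut are filed as inactive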
NPYLR7 ag max-min – also measured in NPYLR7 ag; calls as there; activation, %; measured here: Max-Min RFU normalised activation; some inactives read as strong as hits;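 span of the calcium signal over five minutes; 0% = vehicle and 100% = native peptide agonist; compound fluorescence can raise it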
* marks the source's active call; other numbers are inactive results; & = joins results of further samples. An excerpt; the hit share may differ from the screen's.

| nr | SMILES | NPYLR7 ag | NPYLR7 ag max-min |
| --- | --- | --- | --- |
| 1 | CCc1csc(CNC(=O)c2ccc(NCC3CCCOC3)nc2)n1 (stereo not given) | 8 | 7 |
| 2 | O=[N+]([O-])c1ccc(N2N=C(c3ccccc3)CC2c2ccccc2)cc1 (stereo not given) | 6 | 0 |
| 3 | CC(c1ccc(S(C)(=O)=O)cc1)N(C)C(=O)NCC(C)(C)N1CCOCC1 (stereo not given) | 1 | -3 |
| 4 | Cc1nn(C)c(Cl)c1CNc1ccccc1 | -1 | -2 |
| 5 | C=CCOCC(O)CN(Cc1cccc(F)c1)CC1CC(c2ccccc2C)=NO1 (stereo not given) | -5 | -2 |
| 6 | Cc1cccc(N2C(=O)CC3CS(=O)(=O)CC32)c1C (stereo not given) | 0 | 6 |
| 7 | CC(C)NC(=O)CSc1nc(Cl)cc(N2CCN(C(c3ccccc3)c3ccccc3)CC2)n1 | 20 | 23 |
| 8 | CSCCCNCc1c(C(=O)N2CCCCCCC2)nc2ccc(Cl)cn12 | 5 | 9 |
| 9 | COc1ccc(-c2nnc(SCC(=O)N/N=C(\C)c3cccc([N+](=O)[O-])c3)n2-c2ccccc2)cc1OC | 12 | 21 |
| 10 | CCNC(Cn1ccnc1)C(C)(C)C (stereo not given) | 0 | -2 |
| 11 | COc1cccc(Cc2nsc(N3CCC(C(=O)N4CCN(C(c5ccccc5)c5ccccc5)CC4)CC3)n2)c1 | -8 | -12 |
| 12 | COc1ccc(OC)c(-c2cccc(-c3cccc(NC(=O)c4ccccc4C)c3)n2)c1 | -2 | -9 |
| 13 | CCCN(CC(=O)N(Cc1ccccc1)Cc1sccc1C)C(=O)Nc1ccc(C(=O)OCC)cc1 | 16 | 17 |
| 14 | CCC(C)N(Cc1ccc(S(=O)(=O)NC)cc1)Cc1ccsc1 (stereo not given) | 4 | 3 |
| 15 | Cc1csc(N(C(=O)CC2CCCC2)C2CC2)n1 | -1 | -3 |
| 16 | Cc1nnc(C)n1N=Cc1cccc(O)c1 | -4 | -9 |
| 17 | Cc1ccoc1C(=O)N1CC[C@@H](c2ccc3c(c2)OCO3)[C@H](O)C1 | 0 | 3 |
| 18 | CC[C@H](O)[C@@H]1N(C(=O)COC)C2CCC1(O)CC2 | 9 | 20 |
| 19 | COc1cc(CSc2nnc(N)n2C2CC2)ccc1SC | 12 | 9 |
| 20 | CCN1CCN(C(=O)c2ccc(CSc3nnc(-c4ccc(C)cc4)n3Cc3ccccc3)cc2)CC1 | 2 | 13 |
| 21 | CCOCCn1ccc2c(OCC(=O)c3ccccc3)cccc2c1=O | -2 | 0 |
| 22 | Cc1ccc(NC2=CC(=O)N(CCO)C2=O)cc1 | 1 | 5 |
| 23 | COc1ccc(-c2cc(C(=O)NC(C)(C)C)n3nc(-c4ccc(Cl)cc4)cc3n2)cc1 | 8 | 9 |
| 24 | C=CCOC1C[C@](OCc2cccc(Cl)c2)(C(=O)NCCOC)C[C@H]2OC(C)(C)O[C@@H]12 (stereo not given in full) | -2 | 6 |

Screen by screen, as entered above:
Entries 14–21 in NPYLR7 ag, in turn: 4, -1, -4, 0, 9, 12, 2, -2

(listing goes on)
| nr | SMILES | NPYLR7 ag | NPYLR7 ag max-min |
| --- | --- | --- | --- |
| 25 | CN1CCN2CCN(C(=O)c3csc(-c4cccs4)n3)CC2C1=O (stereo not given) | -3 | -1 |
| 26 | O=C(NNc1ccc(Cl)cc1)c1ccc(N2CCNC(c3ccccc3)C2)nc1 (stereo not given) | 11 | 8 |
| 27 | C#CCOc1c(Cl)cc(C(c2c(C)[nH][nH]c2=O)c2c(C)[nH][nH]c2=O)cc1OCC | 13 | 10 |
| 28 | COC(=O)c1sccc1N=CC1=C(O)CC(C)(C)CC1=O | -1 | -3 |
| 29 | COc1cccc(-c2nc3ccccn3c2NC(=O)c2ccc(C(F)(F)F)cc2)c1 | -15 | -14 |
| 30 | Cc1cc(N(CN2CCCC2=O)C(=O)c2ccc(OC(C)C)cc2)no1 | 0 | -2 |
| 31 | CCOC(=O)c1c(C)[nH]c(C(=O)N2CCN(c3ccccc3)CC2)c1C | 6 | 3 |
| 32 | Cn1c(SCc2ccccc2)nc2c([nH]c3ccccc32)c1=O | 1 | 15 |
| 33 | CNc1cc(-c2ccc(F)cc2)ncn1 | 5 | 3 |
| 34 | Cc1cc(OC(C)C(=O)NS(=O)(=O)C2CCOCC2)ccc1C(C)C (stereo not given) | 1 | 0 |
| 35 | Cc1nc2c(=O)[nH]c(=O)n(C)c2nc1C | -6 | -6 |
| 36 | c1csc(-c2noc(CSc3nnc(C4CC4)n3C3CC3)n2)c1 | -1 | 19 |
| 37 | CC1(C)C2CCC1(C)C(NC(=O)Cn1c(CS(C)(=O)=O)nc3ccccc31)C2 (stereo not given) | 10 | 9 |
| 38 | S=C(SCc1nc2ccccc2[nH]1)N1CCCC1 | 6 | 0 |
| 39 | CCOc1ccc(-n2nnc(C(=O)N3CCOCC3)c2COC)cc1 | 1 | 2 |
| 40 | COc1ccc(NC(=O)CSc2nnc(CNC(=O)c3ccc(S(=O)(=O)N(C)C)cc3)n2-c2cccc(C)c2)cc1 | -11 | 0 |
| 41 | Cc1ccc(-n2c(SCC(=O)c3ccccc3)nc3c(c2=O)SCC3)cc1 | -2 | -3 |
| 42 | O=C(Cc1ccccc1)NC(NC(=S)Nc1cccc(C(=O)O)c1)C(Cl)(Cl)Cl (stereo not given) | -17 | -22 |
| 43 | C#CCOCC(O)CN(CCC(C)C)Cc1ccc(F)cc1 (stereo not given) | -8 | 5 |
| 44 | O=c1c2nc(N3CCCC3)sc2c(-c2ccccc2)nn1Cc1cccc(F)c1 | -4 | -9 |
| 45 | COC(=O)C(=C/C=C/N1CCCCC1)C(=O)OC | -7 | -17 |
| 46 | Cc1nccc(N2CCC(Cc3cccc(C(=O)O)c3)CC2)n1 | -5 | -12 |
| 47 | O=C(NC(C(=O)N1CCOCC1)C1CCN(C(=O)c2ccco2)CC1)c1ccccc1 (stereo not given) | 5 | 4 |
| 48 | CCCn1c(SCc2cc(C)on2)n[nH]c1=O | 5 | 4 |
| 49 | CCn1nnc2c(=O)n(CC(C)C)cnc21 | -1 | 36 |
| 50 | Cc1noc(C)c1CC(=O)N1CCC(c2ccc(O)cc2)CC1 | 1 | 0 |
| 51 | Cc1ccc(NC(=O)Cn2cnc3c(nnn3Cc3ccccc3)c2=O)cc1 | 5 | 4 |
| 52 | Cc1noc(C)c1C(=O)Nc1cccc(C(=O)NC2CCCCC2)c1C | 15 | 4 |
| 53 | C/C(=C/C(=O)Nc1ccc(NC(N)=O)cc1)c1cccc(F)c1 | 3 | 3 |
| 54 | CC(C)n1cc(C(=O)N(C)CC2CCCN(CCc3cccc(C(F)(F)F)c3)C2)cn1 (stereo not given) | 2 | 0 |
| 55 | O=S(=O)(NCCCN1CCOCC1)c1cc(Cl)sc1Cl | -1 | -6 |
| 56 | CCc1cccc(NC(=O)C2CSC3(c4ccc(Br)cc4)CCC(=O)N23)c1 (stereo not given) | 3 | 4 |
| 57 | Cc1ccc(-n2c(C)cc(C3=NNC(=NC4CC4)SC3)c2C)cc1C | -3 | -6 |
| 58 | CC(C)CN1C(=O)N(C)C(=O)C12CCN(Cc1ccc(OC(F)(F)F)cc1)CC2 | 18 | 6 |
| 59 | Cc1cc(=O)[nH]cc1NS(=O)(=O)c1cccc(F)c1F | -13&0 | -18&14 |
| 60 | Cc1cc(OC(=O)c2ccc3c(c2)OCO3)c([N+](=O)[O-])c(=O)[nH]1 | 0 | -2 |

Some of these compounds in order of SMILES length, descending:
| nr | SMILES | NPYLR7 ag | NPYLR7 ag max-min |
| --- | --- | --- | --- |
| 2 | O=[N+]([O-])c1ccc(N2N=C(c3ccccc3)CC2c2ccccc2)cc1 (stereo not given) | 6 | 0 |
| 28 | COC(=O)c1sccc1N=CC1=C(O)CC(C)(C)CC1=O | -1 | -3 |
| 55 | O=S(=O)(NCCCN1CCOCC1)c1cc(Cl)sc1Cl | -1 | -6 |
| 45 | COC(=O)C(=C/C=C/N1CCCCC1)C(=O)OC | -7 | -17 |

Reformatted with two lines to a compound: part of the list above
Value order – NPYLR7 ag, NPYLR7 ag max-min
51: Cc1ccc(NC(=O)Cn2cnc3c(nnn3Cc3ccccc3)c2=O)cc1
→ 5, 4
52: Cc1noc(C)c1C(=O)Nc1cccc(C(=O)NC2CCCCC2)c1C
→ 15, 4
53: C/C(=C/C(=O)Nc1ccc(NC(N)=O)cc1)c1cccc(F)c1
→ 3, 3
54: CC(C)n1cc(C(=O)N(C)CC2CCCN(CCc3cccc(C(F)(F)F)c3)C2)cn1 (stereo not given)
→ 2, 0

Further compounds
| nr | SMILES | NPYLR7 ag | NPYLR7 ag max-min |
| --- | --- | --- | --- |
| 61 | CCOC(=O)c1c(N2C(=O)C3C4C=CC(O4)C3C2=O)sc2c1CCCC2 (stereo not given) | 1 | 0 |
| 62 | COc1ccc(N2CCN(C(=O)C3CCCCC3C(=O)Nc3ccc(-c4ccccc4)cc3)CC2)cc1 (stereo not given) | -7 | -12 |
| 63 | Cc1cccc(CN2CCCC(C(=O)c3ccc4c5c(cccc35)CC4)C2)n1 (stereo not given) | -2 | -5 |
| 64 | COc1ccc(C(=O)NC(C(=O)N2CCCCC2)C2CCN(S(=O)(=O)c3ccc(C)cc3)CC2)cc1 (stereo not given) | 1 | 0 |
| 65 | COc1cc(S(=O)(=O)N2CCOCC2)c(OC)cc1Cl | -8 | -8 |
| 66 | CC(NCc1ccccc1O)C12CC3CC(CC(C3)C1)C2 (stereo not given) | -10 | -19 |
| 67 | O=C(CCC1CCCC1)N1CCN(C(=O)c2cccs2)CC1 | 11 | 3 |
| 68 | Cc1cc(C)cc(NCN2C(=O)c3ccccc3C2=O)c1 | -5 | -7 |
| 69 | Nc1nc(COc2ccc(Cl)cc2Cl)cs1 | 4 | 2 |
| 70 | Cc1ccc2sc(N(CCCN(C)C)C(=O)c3ccco3)nc2c1C | 0 | -1 |
| 71 | COC(=O)c1ccccc1C=C1N=C(c2cccc(OC)c2)OC1=O | 14 | 6 |
| 72 | CC(C)c1ccc(N2CCN(C(=O)c3ccc(Cl)cc3)C(C)C2=O)cc1 (stereo not given) | 0 | 3 |

Reprinted from the part before: two entries; new compounds follow.
| nr | SMILES | NPYLR7 ag | NPYLR7 ag max-min |
| --- | --- | --- | --- |
| 71 | COC(=O)c1ccccc1C=C1N=C(c2cccc(OC)c2)OC1=O | 14 | 6 |
| 72 | CC(C)c1ccc(N2CCN(C(=O)c3ccc(Cl)cc3)C(C)C2=O)cc1 (stereo not given) | 0 | 3 |
| 73 | Cc1ccc2cc(CCNC(=O)CCC3CCCC3)c(=O)[nH]c2c1C | 4 | 1 |
| 74 | Cc1cccc(NC(=O)C2CCCN(CN3CCCC3=O)C2)n1 (stereo not given) | 13 | 11 |
| 75 | Cc1cc(C)c2ccc(/C=C/c3ccccc3N)nc2c1O | 15 | 13 |
| 76 | O=C(Cn1nc(C(F)(F)F)c2c1CCC2)NCc1cccs1 | -2 | -6 |
| 77 | O=C(CCn1nnc2ccccc2c1=O)Nc1ccc2oc(CO)nc2c1 | 1 | -3 |
| 78 | CN(CC(=O)Nc1cccc(F)c1)C(=O)c1cc(-c2cccs2)nc2ccccc12 | 2 | 2 |
| 79 | Cc1cc(C(=O)Nc2ccc3[nH]cc(CCN4CCN(c5cccc(C(F)(F)F)c5)CC4)c3c2)nn1C(C)(C)C | 6 | 2 |
| 80 | CCOc1ccc(C(C)=O)cc1CSc1nnc(C)n1-c1ccccc1 | -4 | 10 |
| 81 | COCCS(=O)(=O)NC(C)Cc1cc(C)cc(C)c1 (stereo not given) | 0 | -2 |
| 82 | Cc1sc2ncc(C(=O)N3CCNCC3C(=O)NC3CC3)c(=O)n2c1C (stereo not given) | 2 | -3 |
| 83 | Cc1nc2ncnn2c(N2CCN(C(=O)c3ccc4ccccc4n3)CC2)c1Cc1ccccc1 | 25 | 18 |
| 84 | CN1CCC(N(Cc2ccccc2)C(=O)Nc2ccc(NC(=O)C3CC3)cc2)CC1 | -1 | 0 |
| 85 | COc1ccc(-n2nc(-c3ccccc3)c3c2N(CC(=O)N2CCCC2)C(=O)CSC3c2ccc3c(c2)OCO3)cc1 (stereo not given) | 22 | 32 |
| 86 | CCC1CN(C(=O)c2ccc(NCc3cnn(CC)c3)nc2)CCN1C(C)C (stereo not given) | 1 | -3 |
| 87 | Cc1ccc(NC(=O)N2CCN(C(=O)CN3CCc4sccc4C3c3ccccc3)CC2)cc1 (stereo not given) | 9 | 1 |
| 88 | O=C(NC(c1ccccc1)c1ccc2ccccc2n1)C1CCN(Cc2cccc(Cl)c2)CC1 (stereo not given) | 11 | 2 |
| 89 | CCOC(=O)c1nn(CCC(F)(F)F)c2c1CN(C(=O)CSc1ccccc1)CC2 | 17 | 7 |
| 90 | CCOC(=O)N1CCN(C(c2cccc(OC)c2)C2Sc3ncnn3C2=O)CC1 (stereo not given) | 4 | 2 |
| 91 | CCn1nc(C(=O)O)c2c1CCC(N(C)CCn1ccnc1C)C2 (stereo not given) | 10 | 4 |
| 92 | CN(C)/C=C1/CCCCN2C(=O)/C(=C/c3ccc(Cl)cc3)N=C12 | 14 | 8 |
| 93 | CCc1nc(C)nc(N2CCN(C(C)=O)CC2)c1Cc1cccc(C)c1 | 7 | 7 |
| 94 | CN1CCC2(CCN(C(=O)CCN3CCCCCCC3)CC2)C1 | 13 | 2 |
